Assay outcomes: PubChem BioAssay, Center for Chemical Genomics, University of Michigan
CDC25B CDK2 inh – human CDC25B-CDK2/CyclinA binding inhibition; HTRF CDC25B-CDK2/CyclinA binding, anti-His/anti-Flag; stronger effect = higher value; z-score (test concentration not listed); hit rate 0.72% among 94,000; AID 1259370;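 note: score is relative to mean and SD of negative controls; strong numbers were not always called active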
HIV TAR-Tat – HIV-1 TAR-Tat binding disruption; z-score (test concentration not listed); HIV-1 TAR RNA, Tat peptide displacement FRET; stronger effect = higher value; hit rate 0.6% among 100,000; AID 1259389;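 note: score is relative to mean and SD of negative controls; some compounds called inactive have numbers as strong as hits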
Starred values were filed as active, the others as inactive; / = not tested or not shown.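 Rule for the calls: active = z-score from 3 up in half or more of its runs; inactive = the rest.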

SMILES	CDC25B CDK2 inh	HIV TAR-Tat
Cc1c(C(=O)N2CCCC2)c(S(=O)(=O)Nc2ccc(F)cc2)c(C)n1C	/	0.78
FC(F)(F)c1nnc2sc(-c3cnccn3)nn12	0.75	0.6
NC(=O)c1c(NCc2ccc(C(=O)O)cc2)sc2c1CCCC2	-0.96	2.29
OCCCc1nc2ccccc2n1Cc1ccccc1Cl	-1.05	/
Cc1cc(Nc2ccc(F)cc2F)nc(-n2nc(C)cc2C)n1	/	-0.87
C=CCOC(=O)C1=C(C)NC(SCC)=C(C#N)C1c1ccc(Cl)cc1 (configuration not stated)	-0.02	/
CC(=O)NC1=NN(C(C)=O)C(c2cc(Br)ccc2OCCCOc2ccccc2)S1 (configuration not stated)	-1.05	0.73
Cc1nc(N(C)C)cc(N2CCN(C(=O)Nc3ccccc3)CC2)n1	-1.98	0.14
Cn1c(=O)c2c(ncn2CC(=O)NC2CCSC2=O)n(C)c1=O (configuration not stated)	-1.03	1.47
CN(Cc1ccccc1)C(=O)CSc1nc(-c2ccc3c(c2)OCO3)nc2cc(=O)[nH]n12	/	26.1*
O=C(CCC(=O)N1c2ccccc2NC2=C(C(=O)CCC2)C1c1ccco1)Nc1ccccc1 (configuration not stated)	/	2.52
CCCOCCOC(=O)c1[nH]c2c(c1C)C(=O)CC(c1cccs1)C2 (configuration not stated)	-2.81	/
O=C(Nc1nccs1)c1cccc2c1-c1ccccc1C2	-1.27	/
Cc1ccc2nc(N/N=C\c3ccc([N+](=O)[O-])o3)nc(-c3ccccc3)c2c1	-2.39	/
COc1ccc(OC)c(C2=NS(=O)(=O)N(C)C(C(=O)NC3CCCCC3)=C2)c1	-1.98	-0.23
Nc1nonc1-c1nc2ccccc2n1CC(=O)Nc1ccccc1Br	-1.23	1.01
O=C(Nc1nccs1)NC1CC(=O)N(c2cccc(F)c2)C1 (configuration not stated)	/	1.17
O=C(NCc1cccnc1)c1cnn2c3c(cnc12)CCCCCC3	/	0.37
CC(=O)N1N=C(N)SC12CCCC2	-1.11	/
CCN1C(=O)c2cc(C(=O)NCCN3CCOCC3)nn2CC1(C)C(=O)NC1CCCC1 (configuration not stated)	/	1.53
S=c1[nH]nc(-c2ccncc2)n1Cc1ccco1	1.3	/
O=C(NCc1ccco1)C1=Cc2sc3c(c2CS1)CCCC3	/	1.27
COc1ccc(Br)cc1CNC(=O)Cn1ncn2c(cc3cc(F)ccc32)c1=O	-1.45	-0.25
O=C(Cn1ncc2c([nH]c3ccccc32)c1=O)N1CCN(C(=O)c2ccco2)CC1	/	0.77
CC(C)CCNC(=O)C1CCCN(c2nn3c(=O)c4c(nc3s2)CCCC4)C1 (configuration not stated)	/	1.04
Going on with the list.
SMILES	CDC25B CDK2 inh	HIV TAR-Tat
CC(=O)Nc1ccc(NC(=O)c2ccco2)cn1	-0.58	/
CCOC(=O)c1nc2ccccc2[nH]c1=O	18.4*	-0.31
COc1ccc(NC(=O)c2c(-c3c(Cl)cccc3Cl)noc2C)cn1	-1.39	/
Cc1nc(=O)c(-c2ccccc2)c(C)n1-c1ccc(O)c(C(=O)O)c1	-1.03	/
CCOC(=O)c1sc(N2CCCCC2)c2c1CC(C)(C)CC2=O	-2.67	/
CCN(CC)c1nc(-c2cccc(OC)c2OC)no1	/	0.9
CCC(C)N(CCNC(=O)Cn1c2ccccc2c2nc(=O)cc(C)n21)C1CCCCC1 (configuration not stated)	-0.67	0.44
Cc1c(NC(=O)Nc2ccc(Br)cc2)c(=O)n(-c2ccccc2)n1C	-0.25	0.15
CC1CCN(c2c(NCC3CCC(C(=O)NCc4ccccn4)CC3)c(=O)c2=O)CC1 (configuration not stated)	-2.22	/
Cc1cccc(N(C)Cc2nnc(-c3ccc4c(c3)OCO4)o2)c1	-2.1	0.15
O=C(NCCN1CCCC1)c1cnc2sc(N3CCOCC3)nn2c1=O	/	1.5
O=C(NC(=S)Nc1ccc(-c2nc3ccccc3o2)c(O)c1)c1cccc(Br)c1	0.77	/
CC1CCCCC1NC(=O)c1cc(S(=O)(=O)N2CCCC2)cn1C (configuration not stated)	/	3.3
Cc1ccc(S(=O)(=O)ON2C(=O)CNC2=O)cc1	-1.51	/
Fc1ccccc1N1CCN(c2nc3ccccc3c3nc(-c4cccnc4)nn23)CC1	0.5	1.17
Brc1ccccc1Cn1cnc2ccccc21	-3.35	1.15
O=C(NC1CCN(c2ncccn2)CC1)c1ccco1	-0.34	-0.05
O=C(NCCSCc1ccco1)C1CC1	-1.32	/
CCc1cccc(Nc2c(C)c(C)nc3ncnn23)c1	/	1.59
COC(=O)c1cc(S(=O)(=O)NCc2cccnc2)c[nH]1	/	2.46
N#Cc1ccc(-n2cccc2)nc1	0.64	/
CC(C)c1[nH]c(=O)c(C#N)c2c1COC(C)(C)C2	-0.72	-2.21
CN1CCN(S(=O)(=O)c2cccc3ccccc23)CC1	-2.08	0.38
CCOC(=O)c1c(NC(=O)Cc2coc3cc(C)cc(C)c23)sc(C)c1C	-0.57	1.54
O=c1c2oc3ccccc3c2n(Cc2ccccc2)c(=O)n1Cc1ccco1	/	1.89
The results go on.
SMILES	CDC25B CDK2 inh	HIV TAR-Tat
O=C(Nc1ccccc1N1CCOCC1)c1cc2ccccc2oc1=O	-1.69	/
COc1ccc(C2Nc3ccc4ccccc4c3C3=C2C(=O)CC(C)(C)C3)cc1 (configuration not stated)	-1.15	1.57
O=C(c1ccc(CSc2nc3cccnc3n2Cc2ccc(F)cc2)cc1)N1CCCC1	/	0.4
CCc1cc2c3c([nH]c2cc1S(=O)(=O)Nc1ccc(F)cc1C)CCCC3=O	/	1.13
CCCC1N=C2c3ccccc3N=C(SCC(=O)N3CCN(c4ccc(F)cc4)CC3)N2C1=O (configuration not stated)	/	0.33
Cn1c2ccccc2c2nnc(SCC(=O)c3ccccc3)nc21	-22.3	-0.56
OC(c1ccccc1)(c1ccccc1)C(CN1CCOCC1)c1ccccc1 (configuration not stated)	-2.44	1.33
Cn1cc(S(=O)(=O)Cc2ccc(Br)cc2)c2ccccc21	-1.36	0.32
COc1cc2c(cc1OC)C(C(=O)NCCCN1CCCC1=O)C1c3ccccc3CCN1C2=O (configuration not stated)	0.45	/
O=C(c1cc(-c2ccco2)on1)N1CCCC1c1ccco1 (configuration not stated)	-2.42	0.15
Nc1nc(N2CCCCC2)nc(Nc2ccccc2)c1[N+](=O)[O-]	/	1.21
CCOC(=O)C(C(=O)OCC)=C(N)C(Cl)(Cl)Cl	-2.36	/
Cc1nc(N2CCN(C)CC2)[nH]c(=O)c1Cc1ccc(Cl)cc1	/	0.96
O=C(Nc1nnc(-c2ccco2)o1)c1ccco1	-1.98	1.29
Cc1nc(CC(=O)Nc2nnc(CC(C)C)s2)cs1	-1.55	0.61
O=C(Nc1ccc2nc3n(c(=O)c2c1)CCCCC3)C(=O)NC1CCCCC1	1.18	/
O=S(=O)(c1ccc(C2Nc3ccc(Cl)cc3C3C=CCC32)cc1)N1CCOCC1 (configuration not stated)	-1.58	-2.45
COC(=O)c1cccc(NC(=S)NCc2ccccc2)c1	2.61	/
Brc1ccc2[nH]c3c(c2c1)CCCC3	-0.71	/
C=CCOc1c(Br)cc(Br)cc1/C=c1/sc2nc3cc(C)c(C)cc3n2c1=O	-2.63	/
Cc1ccc(OCCSc2nnc(-c3ccc4c(c3)OCCCO4)n2C)cc1C	/	0.63
Cc1nnc(SCC(=O)N2CCc3ccccc32)c2nn(-c3ccccc3)c(C)c12	-21.6	-0.5
COc1ccc(Cl)cc1Nc1cc(C)nc2nc(-c3ccco3)nn12	/	-2.58
Cc1ccc(-c2nc(C)c(CCNS(=O)(=O)c3ccc4c(c3)OCCO4)s2)cc1	/	1.21
COc1ccc(CCN2C(=O)CSC2c2ccc(Cl)cc2)cc1OC (configuration not stated)	-0.83	/

Of the compounds above, nine contain fluorine.
SMILES	CDC25B CDK2 inh	HIV TAR-Tat
Cc1c(C(=O)N2CCCC2)c(S(=O)(=O)Nc2ccc(F)cc2)c(C)n1C	/	0.78
FC(F)(F)c1nnc2sc(-c3cnccn3)nn12	0.75	0.6
Cc1cc(Nc2ccc(F)cc2F)nc(-n2nc(C)cc2C)n1	/	-0.87
O=C(Nc1nccs1)NC1CC(=O)N(c2cccc(F)c2)C1 (configuration not stated)	/	1.17
COc1ccc(Br)cc1CNC(=O)Cn1ncn2c(cc3cc(F)ccc32)c1=O	-1.45	-0.25
Fc1ccccc1N1CCN(c2nc3ccccc3c3nc(-c4cccnc4)nn23)CC1	0.5	1.17
O=C(c1ccc(CSc2nc3cccnc3n2Cc2ccc(F)cc2)cc1)N1CCCC1	/	0.4
CCc1cc2c3c([nH]c2cc1S(=O)(=O)Nc1ccc(F)cc1C)CCCC3=O	/	1.13
CCCC1N=C2c3ccccc3N=C(SCC(=O)N3CCN(c4ccc(F)cc4)CC3)N2C1=O (configuration not stated)	/	0.33

The list continues:
SMILES	CDC25B CDK2 inh	HIV TAR-Tat
O=C(C1CCCN(c2nnc(-n3cccc3)s2)C1)N1CCC(N2CCCCC2)CC1 (configuration not stated)	/	1.22
CCOc1cccc(C2C3=C(Nc4c2c(=O)n(C)c(=O)n4C)c2ccccc2C3=O)c1 (configuration not stated)	-2.1	-0.15
CC1=Nc2ccccc2-c2nnc(SCc3ccccc3F)nc2O1	-1.63	-0.78
O=C(N/N=C/c1ccncc1)c1cc(-c2ccc3ccccc3c2)n[nH]1	-0.68	/
Fc1ccccc1Nc1ncnc2c1nc1n2CCCCC1	/	0.6
Cc1ccc2c(c1)-c1c(cnn1CC(=O)NCc1ccc3c(c1)OCO3)CO2	-2.15	0.86
COC(=O)c1cc(NS(=O)(=O)c2ccc3[nH]c(=O)c(=O)[nH]c3c2)cc(C(=O)OC)c1	-1	/
COc1ccc(CNc2sc3c(c2C#N)CC(C)(C)OC3)cc1	-0.75	-0.26
CCC1Oc2ccccc2N(CC(=O)NCCN2CCN(c3ccccc3F)CC2)C1=O (configuration not stated)	1.45	/
O=C(CCSc1nnc(-c2ccc(O)cc2)o1)N1CCOCC1	-2.1	-0.42
COc1cc2nc(-c3cccc(OC(C)=O)c3)oc(=O)c2cc1OC	-1.06	0.77
CC1CCCCN1C(=O)Cn1c(=O)n(CCCS(=O)(=O)C2CCCCC2)c(=O)c2ccccc21 (configuration not stated)	-0.46	1.15
CC(C)c1ccc(Nc2ncnc3c2cnn3-c2ccccc2)cc1	/	1.92
COCCNS(=O)(=O)c1cc2[nH]c3c(c2cc1C)C(=O)CCC3	/	0.64
CCn1c(C(=O)N2CCC(C(=O)N3CCCCC3)CC2)cc2sccc21	-0.43	0
COC(=O)c1ccc(C2c3c(oc4cc(C)c(C)cc4c3=O)C(=O)N2c2ccccn2)cc1 (configuration not stated)	-1.46	0.25
CCn1nccc1C1CCCN1C(=O)c1cnn2c(C(F)(F)F)cc(-c3cccs3)nc12 (configuration not stated)	-1.56	1
CN1CCCN(C(=S)NCCCN2CCOCC2)CC1	-1.64	/
COc1ccc(-n2c(CCC(=O)O)ccc2-c2cccs2)cc1	-0.62	-0.88
Cc1cccc(CSc2nc3ccccc3[nH]2)c1	-0.59	1.29
CNC(=O)c1c(C)csc1N	-1.6	/
CC1CCCCN1C(=O)c1cc2ccc3cccnc3c2[nH]1 (configuration not stated)	/	0.67
COc1cc2ncc(S(=O)(=O)c3ccc(Cl)cc3)c(N3CCC(C(N)=O)CC3)c2cc1OC	-0.32	-0.25
CCc1nn2c(=O)cc(COC(=O)C(C)Oc3ccccc3)nc2s1 (configuration not stated)	/	-0.33
CCOC(=O)c1[nH]c2sc(C)c(C)c2c1NC(C)=O	3.91	1.5

One compound at a time, from the list above.
CCOC(=O)c1[nH]c2sc(C)c(C)c2c1NC(C)=O is entered as CDC25B CDK2 inh = 3.91; HIV TAR-Tat = 1.5
CCn1nccc1C1CCCN1C(=O)c1cnn2c(C(F)(F)F)cc(-c3cccs3)nc12 (configuration not stated) is entered as CDC25B CDK2 inh = -1.56; HIV TAR-Tat = 1

(continued)
SMILES	CDC25B CDK2 inh	HIV TAR-Tat
O=C(O)c1cc(-c2cccs2)nc2n[nH]c(-c3ccc(Br)cc3)c12	/	0.37
CC1C(=O)N2CCCc3cc(S(=O)(=O)Nc4ccc5c(c4)OCCO5)cc1c32 (configuration not stated)	/	1.38
Nc1ccc(-c2nc3ccc(-c4nc5ccc(N)cc5[nH]4)cc3[nH]2)cc1	9.87	/
COc1ccc(-c2coc3cc4oc(=O)c5ccccc5c4cc23)cc1	-2.38	0.68
CN(C)S(=O)(=O)c1ccc2c(c1)C(=C(C#N)C#N)c1cc(S(=O)(=O)N(C)C)ccc1-2	-1.58	/
C=CCn1c(C2CC(=O)N(c3ccc(Cl)cc3)C2)nc2ccccc21 (configuration not stated)	-0.27	1.19
CCN(Cc1ccccc1)C1CCN(Cc2ccc(SC)cc2)CC1	-1.81	/
CCCN(CCc1ccccc1)C1CCc2c(O)cccc2C1 (configuration not stated)	-0.96	/
CCCSCCCNC(=O)C1CCCN(c2nn3c(=O)cc(C)nc3s2)C1 (configuration not stated)	1.14	1.59
CCOC(=O)c1sc2ccccc2c1S(=O)(=O)Nc1cccc(Cl)c1	/	-1.66
Cc1ccc(CN2C(=O)c3oc4ccc(F)cc4c(=O)c3C2c2ccc(O)cc2)cc1 (configuration not stated)	-0.01	0.99
Cn1ncc2c(N3CCC(Cc4ccccc4)CC3)ncnc21	/	2.25
O=C1c2ccccc2C(=O)N1CNC(Cc1ccccc1)c1ccccc1 (configuration not stated)	-1.05	/
Cc1cc2n(n1)CCC(=O)N2CCCC(=O)NCc1cccs1	/	0.68
c1coc([C@H]2Nc3ccccc3[C@H]3OCC[C@@H]23)c1	-0.6	/
CCCN1CCN(C(=O)C2Cc3cc(S(=O)(=O)N(CC)CC)ccc3N2C(C)=O)CC1 (configuration not stated)	/	3.19
Cc1cccc(N2CCN(c3nc4ccccc4n4c(C)nnc34)CC2)c1C	-1.87	1.06
Nc1ncnc(Nc2nc(-c3ccccc3)cs2)n1	-0.75	/
NCC1CCN(S(=O)(=O)c2ccc(-n3cnnn3)cc2)CC1	-0.55	-0.02
CCC12CN3CC(C)(CN(C1)C3c1ccc(C)cc1)C2=O (configuration not stated)	-0.78	0.47
